PINK1 modulator = A Quantitative High throughput Screen to Identify Chemical Modulators of PINK1 Expression | PINK1 immunofluorescence, high-content cytometry, 24 h | Potency, µM (series often up to 76.6 µM), without a hit: at the top dose activation (PINK1 increase), actives largely listed as activators | 410,000 tested, 0.2% active; active = well fitted activation curve with a large enough effect; inconclusive = small, poorly fitted or top-dose-only effect; inactive = flat fitted curve, though single readings scatter; cell line not stated here;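 further: potency means the concentration at half of the fitted maximal effect; % of control where 0% means no effect; nearly all actives have a fitted effect of over 65% in size; a mitochondrial uncoupler was the plate control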
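PINK1 protein level read as immunofluorescence by microplate cytometer in a fixed, stained stable cell line after 24 h exposure to five compound concentrations, with CCCP as control.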
D2 agonist = Beta-Arrestin HTS for Positive Allosteric Modulators of the Human D2 Dopamine Receptor: Agonists | D(2) dopamine receptor (Homo sapiens), P14416 | DiscoveRx PathHunter D2 beta-arrestin, luminescence, 90 min; 100% = 57 uM dopamine signal | activation, % (concentration not given with the values) | 360,000 tested, 0.084% active; in the data active = activation above about 40%; inconclusive = about 15% to 40%; inactive = below about 15%; further: compound concentration not given in the record; the text of the record calls up to 30% inactive
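Agonist mode: compounds alone added to overnight-plated D2 PathHunter cells for 90 min at 37 C, with 57 uM final dopamine (EC100) defining full response. Beta-arrestin recruitment detected by chemiluminescent reagent, read after 1 h at ambient temperature.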
CtBP-E1A blk = qHTS Assay for Inhibitors of the CtBP/E1A Interaction. CtBP / adenovirus E1A interaction (AlphaScreen). AlphaScreen GST-E1A/His-CtBP binding, 1536-well; active compounds read low; control for the full effect not named in the record. activity change, % (no concentration beside the values). 340,000 tested, 0.49% active. AID 651724, 2012; in the data active means activity change below about -65%; inconclusive means about -30% to -65%; inactive means above about -30%; further: on the % scale 0 is the no-effect control and ±100 the full control effect
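Steps: dispense buffer (Tris pH 8.0, NaCl 300 mM, TCEP 1 mM, BSA, Tween 20); add 5X protein mix (GST-E1A, His-CtBP, 125 nM each); pin 23 nL compound; 2 h at 37 °C, dark; add 5X beads (50 ug/mL); 1 h; read.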
D2 potentiator = Beta-Arrestin HTS for Positive Allosteric Modulators of the Human D2 Dopamine Receptor: Potentiators. D(2) dopamine receptor (Homo sapiens), P14416. DiscoveRx D2 beta-arrestin cells, luminescence, 90 min; 100% = 57 uM dopamine signal. potentiation, % (no concentration beside the values). 360,000 tested, 0.23% active; active = potentiation of 50% or more; inconclusive = 30% to 50%; inactive = 30% or less;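 further: compound concentration not given in the record; tested on top of an EC20 dose of dopamine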
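PathHunter beta-arrestin assay in DiscoveRx D2 cells. Compounds were added with an EC20 of dopamine (50 nM final) for 90 min at 37 deg C. Luminescence was read 1 h after detection reagent, with 57 uM dopamine as the EC100 control.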
Six1-Eya2 inh = qHTS Assay for Inhibitors of the Six1/Eya2 Interaction | AlphaScreen GST-Six1/His-Eya2 binding, biochemical; active compounds read low; control for the full effect not named in the record | activity change, % (concentration not given with the values) | 360,000 tested, 0.56% active; in the data active = activity change below about -65%; inconclusive = about -30% to -65%; inactive = above about -30%; further: on the % scale 0 is the no-effect control and ±100 the full control effect
Target sequence (O00167 whole entry, looked up): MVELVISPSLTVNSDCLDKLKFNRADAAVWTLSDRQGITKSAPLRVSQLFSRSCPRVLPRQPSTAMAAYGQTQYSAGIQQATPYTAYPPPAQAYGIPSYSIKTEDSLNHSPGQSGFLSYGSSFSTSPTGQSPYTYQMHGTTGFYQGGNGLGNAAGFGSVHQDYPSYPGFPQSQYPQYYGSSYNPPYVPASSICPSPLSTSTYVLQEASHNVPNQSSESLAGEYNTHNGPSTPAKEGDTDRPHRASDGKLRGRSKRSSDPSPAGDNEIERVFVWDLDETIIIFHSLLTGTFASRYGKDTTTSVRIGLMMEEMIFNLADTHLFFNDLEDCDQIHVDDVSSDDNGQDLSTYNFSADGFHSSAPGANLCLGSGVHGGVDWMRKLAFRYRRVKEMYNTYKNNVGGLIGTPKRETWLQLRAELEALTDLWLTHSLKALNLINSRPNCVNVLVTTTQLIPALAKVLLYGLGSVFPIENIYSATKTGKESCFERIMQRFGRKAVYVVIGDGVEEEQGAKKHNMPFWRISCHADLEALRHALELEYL
Target sequence (Q15475 whole entry, looked up): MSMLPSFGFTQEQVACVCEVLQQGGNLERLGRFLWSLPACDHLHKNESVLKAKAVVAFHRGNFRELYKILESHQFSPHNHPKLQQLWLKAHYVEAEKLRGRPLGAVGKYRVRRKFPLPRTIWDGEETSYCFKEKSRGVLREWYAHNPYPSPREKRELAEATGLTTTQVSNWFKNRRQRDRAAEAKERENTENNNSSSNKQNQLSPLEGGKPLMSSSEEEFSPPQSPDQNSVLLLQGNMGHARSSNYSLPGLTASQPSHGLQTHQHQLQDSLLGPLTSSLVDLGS
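GST-Six1 + His-Eya2 (5X stock: 250/500 nM); Tris pH 8.0, 300 mM NaCl, 0.05% BSA, 0.02% Tween 20; GSH donor/Ni acceptor beads; 1 h 37 °C dark; AlphaScreen readout.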
TRPML1 agonist = qHTS for Agonists of the Human Mucolipin Transient Receptor Potential 1 (TRPML1); Mucolipin-1 (Homo sapiens), Q9GZU1; TRPML1-expressing cells, Ca2+ dye fluorescence, FDSS; host cell line not named in the record; reference of the full effect not given here; activation, % (concentration not given with the values); 410,000 tested, 0.12% active; in the data active = activation above about 50%; inconclusive = about 30% to 50%; inactive = below about 30%; further: 0% is about no effect; the text of the record puts the active cut at 80%
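In this qHTS format, compounds were pin-transferred onto Ca8-dye-loaded TRPML1-DL cells induced with Tet overnight, and intracellular Ca2+ fluorescence was recorded kinetically for 110 s after a 10 s baseline. A subsequent 4uM final 54-4 (EC80) addition followed by a second 110 s read served as the antagonist phase.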
* hit, by the source's call; ? = inconclusive; . = not tested or not shown; [ ] = remark or other dose.

entry	structure	PINK1 modulator	D2 agonist	CtBP-E1A blk
1	COc1ccc(S(=O)(=O)Nc2cc3c4c(c2)C(C)C(=O)N4CCC3)cc1OC (stereo not drawn)	0.8%	8.2	-6
2	COc1ccccc1-c1nc(C(N)=O)c2[nH]c(=O)n(-c3cccc(C)c3)c2n1	-1.6%	-4.5	-5
3	CN(C)C1CN(Cc2cn(Cc3ccc(F)cc3)nn2)S(=O)(=O)C1 (stereo not drawn)	-0.3%	.	2
4	CC(C)CCN1C(=O)c2ccc(C(=O)OCC(=O)N(C)C3CCS(=O)(=O)C3)cc2C1=O (stereo not drawn)	-3.8%	1.0	10
5	NC(=O)c1c(NC(=O)C2CC=CCC2C(=O)O)sc2c1CCCCC2 (stereo not drawn)	-0.2%	0.1	0
6	CCOC(=O)N1CCN(C(=O)c2cc3c(=O)n4cccc(C)c4nc3s2)CC1	1.9%	4.1	5
7	CN(c1cc2c(c3c1ccn3C)C1CCC2C1)C1CCCCC1 (stereo not drawn)	29%	-2.1	?
8	Cc1ccc(N2CCN(C(=O)N3CCOCC3)CC2)c(C)c1	2.1%	-4.6	2
9	Cc1ccc(C(O)Cn2nc(C)cc2C)cc1 (stereo not drawn)	1.1%	0.3	9
10	CC1(C(=O)NS(=O)(=O)c2ccccc2)CCN1C(=O)C1(c2ccc(Cl)cc2)CC1 (stereo not drawn)	1.8%	-3.3	-24
11	O=C(CCNC(=O)c1ccccc1Cl)Nc1ccc(S(=O)(=O)Nc2nccs2)cc1	3.1%	-4.2	-19
12	C=CCNC(=O)c1ccccc1NC(=O)c1ccccc1C	-1.6%	0.0	5

entry	D2 potentiator	Six1-Eya2 inh	TRPML1 agonist
1	1	5	0.5
2	-23	-12	1.3
3	.	-8	-0.3
4	-5	-5	0.0
5	4	-21	0.0
6	2	6	1.6
7	-12	?	-0.2
8	9	1	0.8
9	-3	8	-0.7
10	-8	2	-0.6
11	-13	-4	1.2
12	11	2	-0.8

The listing continues.
entry	structure	PINK1 modulator	D2 agonist	CtBP-E1A blk
13	Cc1ccccc1Oc1ccc2c(c1)[C@@H]1C[C@H](N(C)C(=O)Nc3cc(Cl)cc(Cl)c3)[C@H]([C@H](C)O)C(=O)N1CC2	0.1%	-1.3	-11
14	COc1ccc(NC(=O)c2cc(C3CCCCN3S(=O)(=O)c3ccc(F)cc3F)on2)c(C)c1 (stereo not drawn)	1.0%	5.4	-4
15	O=C(C[C@@H]1C/C=C\CCCC(=O)OC[C@@H]2CCCN2C1=O)N[C@H](CO)Cc1ccccc1	-0.3%	-0.9	5
16	COc1cccc(CNS(=O)(=O)c2ccc3c(c2)NC(=O)CS3)c1	0.4%	0.0	.
17	CC(=O)NC1(c2cccc(F)c2)CCN(CC(=O)NC2CCCCC2)CC1	1.0%	-2.4	15
18	Cc1cccn2cc(-c3ccc(F)cc3)cc12	-2.0%	1.9	-2
19	CCOC(=O)C1=NNC2(c3ccccc3)C(=O)N(c3cccc(Br)c3)C(=O)C12 (stereo not drawn)	-0.4%	-7.0	-2
20	Cc1ccc(C(=O)C2=C(O)C(=O)N(Cc3cccnc3)C2c2ccc(Br)cc2)o1 (stereo not drawn)	0.9%	-0.1	-5
21	O=C(c1[nH]c(C(F)(F)F)nc1-c1ccccc1)N1CCN(C/C=C/c2ccccc2)CC1	-1.1%	6.5	-8
22	O=C(COC(=O)c1ccc(-c2ccc([N+](=O)[O-])cc2)o1)NC(=O)NC12CC3CC(CC(C3)C1)C2	4.5%	1.9	?
23	Cc1cccc(OCCCCCn2ccnc2)c1	-1.4%	2.2	0
24	CN(CC(=O)Nc1ccccc1C(F)(F)F)C(=O)COc1ncnc2sccc12	1.3%	-1.1	2

entry	D2 potentiator	Six1-Eya2 inh	TRPML1 agonist
13	.	-6	0.4
14	3	-6	-0.3
15	-7	6	-0.6
16	1	-4	-0.2
17	-4	4	-0.2
18	-6	30	0.1
19	-22	-13	0.6
20	-5	2	2.3
21	4	-19	-0.6
22	14	-27	-0.1
23	-8	-1	0.7
24	-5	2	0.4

(cont.)
entry	structure	PINK1 modulator	D2 agonist	CtBP-E1A blk
25	COc1ccc(S(=O)(=O)N2CCCCC2)cc1NC(=O)CCC(=O)N1CCC(c2ccccc2)=N1	0.0%	5.7	0
26	CCOC(=O)c1cc2ccc3ccccc3c2s1	3.2%	1.3	74
27	COCCCNC(=S)NNC(=O)Cn1nc(C)c(Br)c1C	0.3%	-4.9	13
28	CCOc1ccc(N2CC(C(=O)Nc3cccc(S(=O)(=O)N4CCOCC4)c3)CC2=O)cc1 (stereo not drawn)	0.6%	-3.7	-9
29	CC1=C(C(=O)N(C)C)CC(CC(=O)NC(c2ccccc2)c2ccccc2)C(=O)N1CCC1=CCCCC1 (stereo not drawn)	1.2%	-7.7	2
30	O=C1NC(Cc2ccc(O)cc2)c2nc3cc(F)c(F)cc3c(=O)n2-c2cc3ccccc3cc21 (stereo not drawn)	-1.7%	8.2	-3
31	COc1ccc(-c2csc(NC(=S)NC(=O)c3cccs3)n2)cc1Br	-0.3%	-5.6	-9
32	COc1ccccc1OCc1ccc(C(=O)Nc2ccncc2)o1	1.0%[38.3 µM]	4.4	0
33	COCCN1C(=O)N[C@@H](c2ccccc2)C(C(C)=O)=C1C	2.3%	-0.7	5
34	N#Cc1ccc(COC(=O)CCc2c[nH]c3ccccc23)cc1	-0.9%	-2.7	-13
35	COc1cccc(/C=C/C(=O)Nc2ccccc2N2CCOCC2)c1	4.2%	-0.2	0
36	C#CCOCCOCCOCCNc1nc(N2CCN(C(=O)CCCCCCCCCCNC(=O)[C@H](CCC(=O)O)n3cc(CCCCCN)nn3)CC2)nc(N2CCN(C(=O)CCCCCCCCCCNC(=O)[C@@H]([C@H](C)O)n3cc(C)nn3)CC2)n1	4.1%	-3.2	.

entry	D2 potentiator	Six1-Eya2 inh	TRPML1 agonist
25	-3	7	3.4
26	-13	92	1.8
27	-26	7	0.1
28	-10	-7	-0.3
29	2	-2	0.2
30	4	1	4.1
31	-12	-7	-0.5
32	0	0	1.0
33	0	0	-0.3
34	-13	-17	3.7
35	5	0	-1.0
36	-12	-5	0.2

Next structures.
entry	structure	PINK1 modulator	D2 agonist	CtBP-E1A blk
37	COC(=O)CN1C(=O)C2(C(C#N)=C(N)Oc3ccccc32)C2=C1CC(C)(C)CC2=O (stereo not drawn)	51%[38.3 µM]	-3.7	1
38	Cc1nn(C)c(C)c1NC(=O)/C(C#N)=C\N(C)C	0.1%	-5.0	9
39	CC1=Nc2cc(C(=O)NCCCOC(C)C)ccc2Sc2ccc(C)cc21	4.2%	-1.4	2
40	O=C(CCC(=O)N1CCN(S(=O)(=O)c2ccccc2)CC1)NC1CCCc2ccccc21 (stereo not drawn)	4.4%[38.3 µM]	-2.5	3
41	CCOC(=O)c1c(NC(=O)c2ccccc2C(=O)O)sc2c1CCC2	-1.6%	-1.4	.
42	CC(C)Oc1ccc(C(=O)NC(C)(C)CO)cc1	-0.2%	-3.9	0
43	O=C(Nc1ccc2c(c1)OCCO2)c1ccoc1	-1.6%	-2.6	2
44	CCN(CC)CCOC(=O)c1cccc(Cl)c1	2.4%	0.1	-1
45	CC1Cc2ccccc2N1C(=O)C1CCCN1S(=O)(=O)c1ccc(Cl)cc1 (stereo not drawn)	4.1%[38.3 µM]	2.7	-12
46	Cc1cccc(C)c1-n1c(C)nn(CC2CC2)c1=O	1.2%	4.3	-5
47	CN(C)S(=O)(=O)c1cccc(-c2nn(-c3ccccc3)cc2/C=C(\C#N)c2nc3ccccc3[nH]2)c1	1.0%	0.7	0
48	CCOC(=O)/C(C#N)=C(\O)c1ccc(NC(=O)c2ccc([N+](=O)[O-])cc2)cc1	-1.0%	?	.

entry	D2 potentiator	Six1-Eya2 inh	TRPML1 agonist
37	-10	2	-0.7
38	-12	2	-0.6
39	-1	-5	-0.3
40	-10	3	0.6
41	-12	-2	-0.8
42	-13	8	0.8
43	-5	-19	-0.4
44	-41	12	-0.1
45	-17	?	-0.2
46	-8	7	-0.9
47	6	14	-0.1
48	20	0	3.1

Molecules shown so far containing a nitro group on carbon:
entry	structure	PINK1 modulator	D2 agonist	CtBP-E1A blk
22	O=C(COC(=O)c1ccc(-c2ccc([N+](=O)[O-])cc2)o1)NC(=O)NC12CC3CC(CC(C3)C1)C2	4.5%	1.9	?
48	CCOC(=O)/C(C#N)=C(\O)c1ccc(NC(=O)c2ccc([N+](=O)[O-])cc2)cc1	-1.0%	?	.

entry	D2 potentiator	Six1-Eya2 inh	TRPML1 agonist
22	14	-27	-0.1
48	20	0	3.1

Next section.
entry	structure	PINK1 modulator	D2 agonist	CtBP-E1A blk
49	C=CCNC(=S)N1CCC(Cc2ccccc2)CC1	-0.4%	-5.5	3
50	O=C(CCCCCN1C(=O)[C@@H]2Cc3ccccc3CN2C1=O)Nc1cccc(F)c1	-0.5%	-3.2	6
51	CC1(C)C[C@H](O)[C@]2(CO)CC[C@]3(C)C(=CCC4[C@@]5(C)CC[C@H](O)C(C)(C)C5CC[C@]43C)[C@@H]2C1 (stereo partly drawn)	1.3%	-2.5	2
52	COc1ccc(Cl)cc1Nc1nnc(-c2ccncc2)s1	-0.1%	-6.0	-1
53	CCC(C)NC(=O)N[C@@H](Cc1ccccc1)C(=O)O (stereo partly drawn)	0.0%	-4.7	17
54	CCOc1ccc2nc(NS(=O)(=O)c3cccs3)sc2c1	-1.2%	4.1	-3
55	COC(=O)Cc1c(C)nc2nc(-c3ccco3)[nH]n2c1=O	-2.1%	-2.2	4
56	O=[N+]([O-])c1ccc(N2CCNCC2)cc1Sc1nc2ccccc2[nH]1	25%	-1.5	-12
57	CC(C)(C)C(=O)N1CCC(O)(CS(=O)(=O)c2ccc(Cl)c(Cl)c2)CC1	3.1%	-2.7	-2
58	COc1cccc(NC(=O)CSc2nc3c(sc4ccccc43)c(=O)n2CCCN2CCCC2)c1	0.9%	-2.6	.
59	Cc1cc(NC(=O)c2ccc(Br)c([N+](=O)[O-])c2)no1	1.7%	0.8	11

entry	D2 potentiator	Six1-Eya2 inh	TRPML1 agonist
49	1	1	-0.9
50	4	-1	-1.6
51	-14	8	.
52	-3	2	.
53	1	-3	-0.2
54	-1	-10	-0.3
55	-4	5	-0.6
56	-33	-13	0.2
57	-8	5	-0.4
58	-21	13	-0.4
59	-9	2	0.0

Entries by screen from above.
Compounds 49 to 59 in Six1-Eya2 inh read 1, -1, 8, 2, -3, -10, 5, -13, 5, 13, 2
Compounds 49 to 59 in TRPML1 agonist read -0.9, -1.6, ., ., -0.2, -0.3, -0.6, 0.2, -0.4, -0.4, 0.0

High-throughput results from PubChem BioAssay.
